# Rango dissoc inh = inhibitors of RanGTP-induced Rango-importin beta complex dissociation. 340,000 compounds, 0.071% hits. Potency, µM (titrated, usually from 46.1 µM), inactives show at the highest dose activity change, negative = inhibition. Biochemical FRET Rango-importin beta, RanGTP-induced dissociation. AID 540253. O95149+P62826; active means falling FRET ratio curve, often poorly fitted, with flat reads before Ran was added; inconclusive means other falling curves, or compound fluorescence or quenching; inactive means flat or rising ratio curve;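 note: potency is the fitted concentration of half-maximal effect; % of control where 0% means no effect; nearly all actives have a fitted effect of over 45% in size; -100% = wells without RanGTP and RCC1; the record marks most hits as doubtful in a second field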
#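 FRET read at 45 min, room temperature: inhibitors block the CFP/YFP signal rise when RanGTP (0.6 uM Ran, 2 mM GTP, 0.2 uM RCC1) frees Rango (0.1 uM) from importin beta (0.25 uM). Pre-read after 5 min compound exposure flags interference.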
# GLA inh pH 4.5 = alpha-galactosidase A (human) inhibition, pH 4.5 | 230,000 tested, under 10 active | purified enzyme, 4-MU-alpha-Gal fluorescence, pH 4.5 | P06280 | activity change, negative = inhibition, % at 105 µM; inconclusive = small, poorly fitted or top-dose-only inhibition, or a rising curve; inactive = flat fitted curve, though single readings scatter; no compound was filed as active;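 note: 0% = full activity with enzyme and -100% = basal without enzyme; dose as in the result columns while the protocol names 77 µM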
# Target sequence (P06280 whole entry, looked up): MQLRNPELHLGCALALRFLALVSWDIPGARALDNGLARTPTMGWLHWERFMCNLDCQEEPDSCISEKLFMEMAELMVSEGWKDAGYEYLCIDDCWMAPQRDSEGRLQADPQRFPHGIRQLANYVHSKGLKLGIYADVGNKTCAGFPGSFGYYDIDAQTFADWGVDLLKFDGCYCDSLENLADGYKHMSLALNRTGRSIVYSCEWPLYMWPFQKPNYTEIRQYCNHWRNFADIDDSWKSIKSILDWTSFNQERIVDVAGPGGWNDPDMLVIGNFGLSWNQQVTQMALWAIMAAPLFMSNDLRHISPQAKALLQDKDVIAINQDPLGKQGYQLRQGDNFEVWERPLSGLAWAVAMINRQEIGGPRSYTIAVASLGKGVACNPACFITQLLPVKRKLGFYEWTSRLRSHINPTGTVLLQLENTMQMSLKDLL
# miR-21 FLuc = miR-21 reporter, rising signal; HeLa miR-21 FLuc reporter, luciferase, 48 h; Potency, µM (highest dose often 38.3 µM), without a hit: at the highest dose reporter change, positive = more light; 340,000 tested, under 10 active; AID 2288; active = well fitted rising curve with a large enough effect; inconclusive = small, poorly fitted or top-dose-only effect; inactive = no such curve, though single readings can be large or run the other way;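 note: % of control where 0% means no effect; miR-21 action dims this reporter so a rising signal means less miR-21 action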
#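 Compounds were titrated across several concentrations (up to approximately 40 uM) and incubated 48 hours with HeLa miR-21-FLuc reporter cells (miR-21 target sequence downstream of FLuc, endogenous miR-21). Readout was firefly luciferase luminescence after lytic detection reagent.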
# Rango-impB inh = inhibitors of Rango-importin beta complex formation; 340,000 compounds, 0.031% hits; AID 540263; Potency, µM (highest dose often 92.2 µM), without a hit: top-dose inhibition of complex formation; Q14974; Rango CFP/YFP FRET sensor + importin beta, 45 min; active = rising FRET ratio curve, often small or poorly fitted; inconclusive = mostly compound fluorescence or quenching in the first reads; inactive = flat curves in all reads;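 note: potency is the fitted concentration of half-maximal effect; 0% = DMSO wells and 100% = buffer wells lacking importin beta; nearly all actives have a fitted effect of over 15% in size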
#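 Inhibition scored from the CFP 486 nm/YFP 530 nm FRET ratio 45 min after adding 0.125 microM importin beta to 50 nM Rango biosensor preincubated 5 min with compound (room temperature, PBS with DTT, Tween-20, BSA). No-importin wells as positive control.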
# Numbers without * were called inactive; u = inconclusive; x = not tested or not shown; & = joins results of further samples.
No.	SMILES	GLA inh pH 4.5	Rango dissoc inh	miR-21 FLuc	Rango-impB inh
1	CN(C)CCNC(=O)c1ccc(COc2ccc(Cl)cc2Cl)cc1	5	17%	u	3.6%
2	CCn1c(SCC(=O)C(C)(C)C)nnc1-c1cccnc1	-3	3%	-2%	-0.4%
3	Fc1ccc(Nc2ccc3ccccc3n2)c(F)c1	-7	30%	-16%	-0.5%
4	CCN(CCCNC(=O)C1CCC(=O)N1Cc1ccc(F)cc1)c1cccc(C)c1 (centres undefined)	-6	-1%	-2%	-0.2%
5	CCCNC(=O)c1ccc2c(=O)c(O)c(-c3cccc(Br)c3)[nH]c2c1	5	u	u	u
6	Cc1ccc2c(c1)C1CN(C)CCC1N2C(=O)c1cccc(S(=O)(=O)N(C)C)c1 (centres undefined)	5	12%	-5%	-0.2%
7	CCN(CC)CCn1c(-c2ccc(C)cc2)nc(=S)c2c1CC(C)(C)OC2	3	5%	-6%	0.2%
8	NS(=O)(=O)c1ccc(CCNC(=O)CSc2ncnc3ccccc23)cc1	8	4%	-2%	0.7%
9	COc1cccc(NC(=O)c2ccc(CN3CCN(c4ccccc4)CC3)cc2)c1	-5	-18%	11%	-2.1%
10	CCCc1cc(=O)oc2cc(C)cc(OC(C)C(=O)NCC3CCC(C(=O)O)CC3)c12 (centres undefined)	x	3%	-5%	0.1%
11	O=C(/C=C/c1ccc(N2CCCCC2)c([N+](=O)[O-])c1)c1ccc(O)cc1	0	37%	8%	-0.6%
12	Cc1ccc(C(=O)OCC(=O)NCCNC(=O)COC(=O)c2ccc(C)o2)o1	x	2%	x	2.9%
13	CCOc1ccccc1C(=O)Nc1ccc(S(=O)(=O)N2CCN(C)CC2)cc1	x	1%	-4%	2.6%
14	CCN(CC)c1ccc(N)cc1S(=O)(=O)Nc1ccc(OC)cc1	-12	-2%	-7%	-0.3%
15	CC(C)(C)c1ccc(OCCNC(=O)c2ncn[nH]2)cc1	8	-7%	-13%	2.2%
16	COc1ccc(C(C)C)cc1S(=O)(=O)N1CCC(C(=O)N2CCN(C)CC2)CC1	x	8%	-4%	1.4%
17	O=c1c2nnn(Cc3ccccc3)c2ncn1C/C=C/c1ccccc1	1	-5%	-7%	-5.2%
18	O=C(C1CCN(S(=O)(=O)c2ccccc2)CC1)N1CCN(c2ccccc2)CC1	x	15%	2%	2.9%
19	COc1ccc(C2c3c(-c4ccccc4O)n[nH]c3C(=O)N2Cc2ccco2)cc1 (centres undefined)	-3	-8%	1%&0%	u
20	COc1ccc(S(=O)(=O)N2CCN(C(=O)c3cccs3)CC2)cc1OC	-3	-5%	-4%	-2.2%
21	CC(C)Sc1ccc([N+](=O)[O-])cc1C(=O)Nc1ccncc1	-4	8%	6%	0.3%
22	Cc1c(-c2nc3ccccc3[nH]2)cnn1C	x	11%	x	-0.7%
23	COc1ccc(C(=O)c2ccc3oc(-c4ccc(OC)cc4)c(C#CCCO)c3c2)cc1	x	2%	x	3.4%
24	NS(=O)(=O)c1ccc2nc(NC(=O)Nc3ccc(F)cc3)sc2c1	x	25%	-43%	1.0%

# Part of the list above, showing only Rango-impB inh, miR-21 FLuc and GLA inh pH 4.5.
item	molecule	Rango-impB inh	miR-21 FLuc	GLA inh pH 4.5
22	Cc1c(-c2nc3ccccc3[nH]2)cnn1C	-0.7%	x	x
20	COc1ccc(S(=O)(=O)N2CCN(C(=O)c3cccs3)CC2)cc1OC	-2.2%	-4%	-3

# Additional records:
No.	SMILES	GLA inh pH 4.5	Rango dissoc inh	miR-21 FLuc	Rango-impB inh
25	CC(NC(=O)c1cccs1)c1nnc(SCc2ccc(Cl)cc2Cl)n1C (centres undefined)	-4	7%	-7%	u
26	C=CC[C@@H](CC(=O)N[C@@H](CO)Cc1ccccc1)C(=O)N[C@H](COC(=O)[C@H](CC=C)CC(=O)OC(C)(C)C)Cc1c[nH]c2ccccc12	x	23%	x	-2.7%
27	CCOc1ccccc1NC(=O)Nc1cccc(C(C)=O)c1	-7	34%	-1%	-1.5%
28	Cc1c(Cl)cnc(NC(=O)COC(=O)[C@@H](NC(=O)c2ccco2)C(C)C)c1Cl	x	u	x	u
29	CCN(CC)CCC(=O)N1C/C(=C/c2ccccc2)C(=O)/C(=C\c2ccccc2)C1	x	-2%	x	-2.0%
30	CCCCn1c(=O)[nH]c(=O)c2c1nc(-c1ccc(CC)c([N+](=O)[O-])c1)n2C	-1	x	-3%	x
31	O=C(NCc1ccccn1)c1ccc2c(c1)N(Cc1ccccc1)CCS2	19	-5%	11%	-4.2%
32	O=C(CCc1nnc(Cc2ccc3c(c2)OCO3)o1)NCCc1ccccc1Cl	x	4%	-3%	0.6%
33	COc1ccc(OC(=O)COc2ccccc2C)cc1	x	18%	x	-0.6%
34	Cc1ccccc1N1C(=O)c2cccc3cccc(c23)C1=O	x	1%	-35%	5.9%
35	COCCNC(=S)N/N=C(\C)c1ccccc1OC	-12	-1%	-6%	0.0%
36	c1nnnn1C12CC3CC(CC(C3)C1)C2	-1	-4%	-7%	2.2%
37	Cn1c(=O)[nH]c(=O)c2c1nc(N1CCOCC1)n2CC(O)COc1ccc2ccccc2c1 (centres undefined)	1	5%	4%	1.0%
38	CN(C)c1ccc(C(=S)N2CCOCC2)cc1Br	4	-5%	-9%	1.8%
39	Cc1ccc(S(=O)(=O)c2nc(C)c3c(n2)CCC3)cc1	-7	0%	-4%	0.5%
40	CSc1c(-c2ccccc2)nc2ccc(Cl)cc2c1C(=O)O	3	3%	-1%	0.3%
41	Cc1ccc(C)c(N2CCN(C(=O)CCS(=O)(=O)c3ccc4c(c3)oc(=O)n4C)CC2)c1	x	5%	0%&14%	0.6%
42	CCC(=O)NCCc1nc(-c2ccccc2)no1	x	44%	x	-0.9%
43	Cc1ccc(N(C)S(=O)(=O)c2ccc(-c3cc(C)no3)s2)cc1	x	1%	22%	-0.2%
44	Cc1cc(C)cc(NS(=O)(=O)c2ccc(NC(=O)C3CCCCC3C(=O)O)cc2)c1 (centres undefined)	3	9%	-6%	-0.2%
45	Cc1ccnc2nc(C(=O)N3CCN(c4ccc(F)cc4)CC3)nn12	1	21%	-1%	u
46	Cc1cc2nc(-c3ccc(=O)[nH]c3)n(Cc3ccccc3)c2cc1C	x	11%	-12%	-1.1%
47	CCN1/C(=C2/OC(=S)N(C)C2=O)Sc2ccccc21	2	u	-2%	u
48	Cc1nc2ccc(C(=O)O)cc2c2c1CC(CN)O2 (centres undefined)	x	1%	-1%	-2.7%

# Reprinted at random: three entries already listed, in no set order.
No.	SMILES	GLA inh pH 4.5	Rango dissoc inh	miR-21 FLuc	Rango-impB inh
43	Cc1ccc(N(C)S(=O)(=O)c2ccc(-c3cc(C)no3)s2)cc1	x	1%	22%	-0.2%
45	Cc1ccnc2nc(C(=O)N3CCN(c4ccc(F)cc4)CC3)nn12	1	21%	-1%	u
41	Cc1ccc(C)c(N2CCN(C(=O)CCS(=O)(=O)c3ccc4c(c3)oc(=O)n4C)CC2)c1	x	5%	0%&14%	0.6%

# More records
No.	SMILES	GLA inh pH 4.5	Rango dissoc inh	miR-21 FLuc	Rango-impB inh
49	O=C(Nc1nc2ccccc2[nH]1)C1CC(=O)N(c2ccc3c(c2)OCCO3)C1 (centres undefined)	2	-4%	7%	-0.4%
50	COC(=O)C1CCN(C(=O)CN2C(=O)c3ccccc3S2(=O)=O)CC1	x	-2%	x	0.5%
51	C=CCC(=O)N1CCCC(CO)(Cc2ccc(F)cc2F)C1 (centres undefined)	x	-7%	-2%	1.9%
52	O=C(c1ccc(-c2ccccc2Cl)o1)N1CCN(c2ccccc2O)CC1	x	-5%	x	-1.0%
53	CCCCN(C(=O)CC1CCCC1)c1c(N)n(CC(C)C)c(=O)[nH]c1=O	x	1%	x	1.2%
54	COCCOC(=O)c1c(N)n(CCCN2CCOCC2)c2nc3ccccc3nc12	u	u	6%	u
55	COc1ccc(CCN2CC(C(=O)OCC(=O)NC(Cc3ccccc3)C(C)=O)CC2=O)cc1OC (centres undefined)	x	0%	x	-0.4%
56	COc1cc(/C=C2\CCn3c2nc2cc(C(=O)O)ccc2c3=O)ccc1OC(F)F	x	2%	-32%	-2.1%
57	COc1ccc2c(-c3ccccc3)cc(N3CCOCC3)nc2c1	1	-14%	-4%	1.0%
58	COc1ccc(CCN(Cc2cccs2)S(=O)(=O)c2ccc(-n3cnnn3)c(OC)c2)cc1OC	-3	1%	-2%	3.2%
59	O=C1CC(c2ccccc2Cl)CC(O)=C1C=NCCCO (centres undefined)	x	1%	0%	2.2%
60	C/C(=N\NC(=O)C1CC1)c1cccs1	3	6%	-22%	-1.5%
61	CCn1ccnc1CNC(=O)C1CCC(=O)N(Cc2cccc(C(F)(F)F)c2)C1 (centres undefined)	x	20%	-2%	-2.1%
62	Cc1cc(NC(=O)CSc2nnc(-c3ccccc3F)n2C)no1	x	9%	x	-5.6%
63	O=C(N/N=C/c1cc2ccccc2nc1Cl)[C@H]1C[C@@H]1c1ccccc1	-15	-16%	-4%	-3.9%
64	CCOC(=O)N1CCN(S(=O)(=O)c2ccc(OC)c(OC)c2)CC1	-3	6%	-3%	1.2%
65	Cc1cc(C(=O)O)sc1C	4	0%	5%	-6.4%
66	CC(CCc1ccccc1)NC(=O)CCNS(=O)(=O)c1ccccc1 (centres undefined)	x	0%	x	11%
67	COc1ccc(NC(=O)CN2CCN(CC(=O)Nc3ccccc3F)CC2)cc1OC	2	1%	-9%&-10%	-4.6%
68	Cc1snc2sc(C(=O)c3ccc(Br)cc3)c(N)c12	0	u	-48%	u
69	COC(=O)c1c[nH]c(=O)c2ccccc12	-8	2%	0%	0.7%
70	Cn1cnc(S(=O)(=O)N2CCN(c3ccc(F)cc3)CC2)c1	-3	-9%	-5%	-3.4%
71	O=C(NCc1ccc(-c2nc3ccccc3s2)cc1)c1ccc(Br)o1	1	-20%	-52%	0.1%
72	O=C(/C=C/c1cccc([N+](=O)[O-])c1)OCC(=O)c1ccccc1	3	-3%	-2%	3.8%
73	Cc1nc(-c2cccc(NC(=O)COc3ccc(Cl)cc3)c2)cs1	x	-5%	3%	u
74	C#CCOc1c(Cl)cc(/C=C2/C(=O)ON=C2C)cc1OC	x	3%	0%	0.9%
75	COc1ccc(OCC(=O)N/N=C/c2cccc3cccnc23)cc1	x	5%	x	0.5%
76	Cc1ccc(Cl)cc1NC(=O)C1COc2ccccc2O1 (centres undefined)	x	-3%	-18%	-0.4%
77	CCn1c(CNC(=O)c2ccc(Cl)cc2)nnc1SCC(=O)NC1=NCCS1	x	7%	4%	-1.9%
78	CCOC(=O)/C(=N\Nc1ccccc1)c1csc(Nc2ccc(C)cc2)n1	5	u	-1%	-2.1%
79	Cc1ccc(C(=O)NCCNC(=O)CN2CCCC2)cc1	3	0%	-2%	-0.5%
80	CCOC(=O)N1CCN(C(=O)CSc2ncccn2)CC1	0	17%	-2%	-0.7%
81	COc1ccc(NS(=O)(=O)c2cccc(C(=O)NNC(=O)c3ccccc3O)c2)cc1	x	11%	x	-0.4%
82	Cc1cccc(NS(=O)(=O)c2ccc(NC(=O)CN(c3cc([N+](=O)[O-])ccc3C)S(C)(=O)=O)cc2)c1	-10	-13%	u	-4.5%
83	CC(=O)c1cnn(-c2cc(Oc3cccc(C)c3)ncn2)c1C	-3	-2%	-27%	5.6%
84	Cc1ccccc1OCc1nc2ccccc2c(=O)n1/N=C/c1cn[nH]c1-c1ccccc1	u	0%	-24%	-1.8%
85	O=C(c1ccc2c(=O)n(C3CCCC3)c(=S)[nH]c2c1)N1CCc2ccccc21	-6	-2%	-3%	u
86	CC(C)c1[nH]nc2c1C(c1ccc(OC(=O)c3ccco3)cc1)C(C#N)=C(N)O2 (centres undefined)	3	-4%	-9%	-0.6%
87	C=CC[C@H](CC(=O)NCCO)C(=O)N[C@@H](COC(=O)[C@@H](CC=C)Cc1ccc(F)cc1)Cc1ccccc1	x	-11%	x	-0.1%
88	O=C(Nc1ccc2c(c1)oc1ccccc12)c1cccnc1	7	1%	-46%	5.5%

# Bioassay records as filed in PubChem.

# These rows are one share of the data. The share of hits here may be higher or lower than overall.
